RGS16-Gao – RGS16-Galphao interaction regulator (human); bead-based flow cytometry RGS16-Galphao binding, fluorescence; actives lie on both sides; 0.38% of 220,000 active; binding response (% of control), % at 10 µM; O15492+P09471;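 active = below 25% or above 175%, edge rows of some plates excepted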;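 note: Galphao activated by GDP with aluminum fluoride before binding; 100% = wells without compound and 0% = beads without RGS; some results beyond the cut were filed as inactive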
HSV replic up – HSV replication enhancement; HSV replication augmentation in cells, fold increase; 0.005% of 220,000 active; maximum fold increase; AID 1956;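 active = peak rise of 1.5-fold or more in the series; tested in PC3 cells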;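 note: first round at 10 µM; read as green reporter fluorescence; hits show the peak of a series up to 25 µM; 1 = signal of infected wells without compound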
Insulin prom inh – TRM-6 insulin promoter activity inhibition. TRM-6 cells (human fetal islet line), insulin promoter-eGFP reporter, imaging; reporter expression induced with tamoxifen. inhibition, % at 2 µM. 0.9% of 130,000 active. AID 1273;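 active = inhibition above the mean plus 3 SD, with well images judged a real hit on visual review, cut at about 60% in these data, passing the limit was not always enough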
PKD1 inh – blocks activity of human protein kinase D1; 0.056% of 200,000 active; inhibition, %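 (about 10 µM by stock and volumes)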; PKD1 kinase fluorescence polarization assay; Q15139;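 active = inhibition of 50% or more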;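 note: controls were vehicle for no effect and a reference inhibitor for full effect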
Target sequence (Q15139 whole entry, looked up): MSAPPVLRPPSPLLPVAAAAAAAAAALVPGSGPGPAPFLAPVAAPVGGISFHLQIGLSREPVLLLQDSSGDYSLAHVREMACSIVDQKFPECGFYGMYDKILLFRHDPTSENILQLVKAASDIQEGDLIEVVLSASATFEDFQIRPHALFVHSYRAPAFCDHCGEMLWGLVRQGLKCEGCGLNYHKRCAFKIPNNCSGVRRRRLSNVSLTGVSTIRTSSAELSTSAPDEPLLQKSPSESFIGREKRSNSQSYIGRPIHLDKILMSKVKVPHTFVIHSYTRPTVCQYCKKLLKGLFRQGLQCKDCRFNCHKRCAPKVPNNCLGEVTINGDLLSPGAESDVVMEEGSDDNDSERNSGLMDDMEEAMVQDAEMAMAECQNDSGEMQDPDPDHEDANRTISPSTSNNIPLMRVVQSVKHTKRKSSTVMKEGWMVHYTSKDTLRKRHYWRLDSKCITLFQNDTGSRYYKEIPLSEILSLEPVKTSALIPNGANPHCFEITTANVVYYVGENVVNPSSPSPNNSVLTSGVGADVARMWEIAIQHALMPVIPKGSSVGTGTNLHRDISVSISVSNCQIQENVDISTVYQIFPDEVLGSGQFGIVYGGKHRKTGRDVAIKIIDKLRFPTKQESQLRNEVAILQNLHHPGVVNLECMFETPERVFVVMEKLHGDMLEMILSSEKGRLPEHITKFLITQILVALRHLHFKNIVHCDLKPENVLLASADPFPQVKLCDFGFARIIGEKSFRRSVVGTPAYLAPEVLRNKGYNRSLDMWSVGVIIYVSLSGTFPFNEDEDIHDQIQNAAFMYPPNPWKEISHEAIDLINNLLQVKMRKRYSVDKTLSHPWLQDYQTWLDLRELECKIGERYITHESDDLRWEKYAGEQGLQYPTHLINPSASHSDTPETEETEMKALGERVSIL
GALR2 agonist – GALR2 (human) receptor agonism | 0.48% of 140,000 active | GALR2-expressing cells, agonist activation read-out | activation, %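 (tested at 5 µM)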;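 active = above mean plus 3 SD of all compounds, about 5% in these data, not always enough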;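 note: 0% = vehicle buffer wells and 100% = reference agonist at full effect; tested in CHO reporter cells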
Insulin prom inh cell count – also measured in Insulin prom inh; calls as there; normalized cell count, %; measured here: cell count, toxicity; reference of the scale not given here;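 cells exposed to compound for 48 h; stained nuclei by imaging scaled within each plate; lower means fewer cells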
HSV replic up primary fold – also measured in HSV replic up; calls as there; fold increase; compound at 10 µM; measured here: primary screen fold increase 10 uM; tested in PC3 cells;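 GFP signal in the first replicate; 1 = infected wells without compound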
* hit, by the source's call; i = inactive; nt = no result given. The order is random; about 1.3% have a hit in one of these screens.

Order of results: RGS16-Gao	HSV replic up	HSV replic up primary fold	Insulin prom inh	Insulin prom inh cell count	PKD1 inh	GALR2 agonist
COc1ccc(-c2[nH]n(-c3ccc([N+](=O)[O-])cc3)c(=O)c2C=NCC2CCCO2)cc1 (centres undefined)
  101	i	0.99	nt	nt	8	nt
Cc1c(Cl)cccc1Nc1nc(N)nc(CN2CCc3ccccc3C2)n1
  103	i	1	15	101	4	-1.1
COc1ccc(C(=O)Nc2c(F)c(F)c(F)c(F)c2F)c(OC)c1
  77	i	1	-8	85	-7	-1.5
CC1=NC(=O)C(N=Nc2cccc(O)c2)N1c1ccccc1 (centres undefined)
  97	i	1.1	0	98	4	-1.2
Cc1cccc(OCCCn2c(=O)oc3ccccc32)c1
  103	i	1	-6	76	4	nt
COc1ccc(NC(=O)/C(N=Nc2cc(S(=O)(=O)Nc3ccc(OC)cc3)ccc2OC)=C(\C)O)cc1
  99	i	0.79	nt	nt	-4	nt
Cc1ccc2cc(C)c3nnc(SCC(=O)NCc4ccco4)n3c2c1
  95	i	0.88	-17	144	14	-2.1
COc1cc(OC)c2c(-c3ccccc3)cc(=O)oc2c1C(CCN1CCCCC1)c1ccc(N(C)C)cc1 (centres undefined)
  101	i	0.56	nt	nt	nt	nt
CCCc1ccc(-c2csc(NC(=O)Cc3cccs3)n2)cc1
  105	i	1.1	-20	122	-6	0.4
Cc1ccc(-n2c3c(c(=O)[nH]c2=O)C(NS(=O)(=O)c2ccc(Cl)cc2)(C(F)(F)F)C(=O)N3)cc1 (centres undefined)
  99	i	1	nt	nt	-7	-0.8
CCC1=Nc2cc(C(=O)NCC3CCCO3)ccc2Sc2ccc(Cl)cc21 (centres undefined)
  96	i	0.73	nt	nt	nt	nt
COc1ccc(C)cc1NC(=S)NNC(=O)c1ccccc1Cl
  99	i	1	nt	nt	-3	-1.9
COc1ccc(C2c3c(ccc4ccccc34)Oc3ncn4nc(Cc5ccc(OC)c(OC)c5)nc4c32)cc1 (centres undefined)
  102	i	1.1	nt	nt	-16	0.1
CCCn1nnnc1SCC(=O)NCc1ccc2c(c1)OCO2
  103	i	1	nt	nt	23	-0.2
CCC1c2ccc(C)n2CCN1C(=O)Nc1cc(Cl)ccc1OC (centres undefined)
  110	i	1	-143	100	-9	-2.0
Cc1nnc(SCC(=O)N(C(C)C)C(C)C)nc1C
  107	i	0.99	9	90	-5	-2.1
O=C(CS(=O)(=O)c1c[nH]c2ccccc12)NC1CCCCC1
  104	i	0.99	nt	nt	0	-1.2
Cc1nnc(NC(=O)CSc2cn(CCNC(=O)c3ccccc3)c3ccccc23)s1
  98	i	0.73	nt	nt	-12	-1.8
COc1ccc(CNC(=O)/C(C)=C\C(=O)O)cc1
  109	nt	nt	-62	94	-6	nt
CN(C)CCOCCOc1ccc(Cl)c2ccccc12
  103	i	0.83	-15	118	-2	nt
CCc1ccc(N=CC23c4ccccc4C(c4ccccc42)C2C(=O)N(c4ccc(OC)cc4)C(=O)C23)cc1 (centres undefined)
  99	i	0.93	22	114	-5	-3.2
CC(=O)NC1=NN(C(C)=O)C(C)(c2cccs2)S1 (centres undefined)
  109	i	0.74	-94	121	-3	-1.9
COc1ccc(N(CC(=O)Nc2cccc(N(C)S(C)(=O)=O)c2)S(=O)(=O)c2ccc(F)cc2)cc1
  105	i	1	nt	nt	nt	nt
COc1ccc(OC)c(S(=O)(=O)Nc2ccccc2C(=O)O)c1
  96	i	1	22	89	-11	-0.7
Cc1ccc(N(Cc2ccco2)C(=O)c2ccc(N3CCCCC3)c([N+](=O)[O-])c2)cc1
  98	i	1	-13	111	42	-0.3
O=C(NCc1ccccc1)c1ccc(CS(=O)(=O)Cc2ccccc2F)o1
  103	i	0.92	-67	116	2	nt
O=C(CN1C(=O)NC2NC(=O)NC21)N/N=C/c1ccccc1F (centres undefined)
  96	i	0.98	nt	nt	2	nt
CC(C)(C)C(=O)NC1CCN(S(C)(=O)=O)CC1
  39	i	0.71	67	110	-4	-1.7
CCOP(=O)(OCC)c1nc(-c2cccc3ccccc23)oc1N1CCOCC1
  100	i	0.98	13	82	4	0.5
Cc1cc(C)c(NC(=O)Cn2nc(-c3ccccc3)nc2-c2ccccc2)c(C)c1
  110	i	0.94	nt	nt	-8	-0.9

Additional entries:
Order of results: RGS16-Gao	HSV replic up	HSV replic up primary fold	Insulin prom inh	Insulin prom inh cell count	PKD1 inh	GALR2 agonist
O=C(Nc1ccccc1Br)C1CCN(C(=O)Cc2ccccc2)CC1
  21*	i	0.98	-25	87	-3	-2.0
CC(=O)N1CCC(=NNc2ccc(S(=O)(=O)N3CCOCC3)cc2[N+](=O)[O-])CC1
  104	i	0.98	19	80	-9	-0.3
N#Cc1nc(-c2ccccc2F)oc1NCCc1ccccc1
  114	i	0.87	-3	103	-18	-0.4
CCOC(=O)C(=O)NCc1ccc(/C=C2/N=C(C)C(C(=O)OCC)=C2O)o1
  104	i	1.2	nt	nt	2	nt
CC1(C)Nc2ccccc2N(CC(=O)N2CCCCC2)C1=O
  101	i	0.82	0	92	-8	-0.9
Cc1ccc(NC(=O)/C(C#N)=C/c2cccs2)c(C)c1
  104	i	0.97	30	74	-1	-0.4
Cc1nn(C)cc1CNC(=O)C1(C)CC1(Cl)Cl (centres undefined)
  102	i	0.91	-8	117	-13	0.9
CC(C)CC1NC(=O)N(CC(=O)N2CCCc3ccccc32)C1=O (centres undefined)
  101	i	0.92	nt	nt	1	nt
COC(=O)C1Cc2c([nH]c3ccccc23)CN1 (centres undefined)
  102	i	0.88	-39	97	5	-1.4
CC(=O)O/C(=C\c1cn(C(C)=O)c2ccccc12)C(=O)O
  99	i	0.99	nt	nt	nt	nt
COc1ccc2c(c1)C(C1=C(O)CC(C)(C)CC1=O)C1=C(CC(C)(C)CC1=O)O2 (centres undefined)
  102	i	0.94	10	102	2	-2.4
O=C(O)c1ccc(CSc2nnc(-c3cccnc3)n2-c2ccc(Br)cc2)cc1
  97	i	0.89	nt	nt	-4	nt
CCOC(=O)CCc1c(C(=O)OCC)[nH]c(CC)c1C(=O)OCc1ccccc1
  95	i	0.92	nt	nt	nt	nt
CCC(C)(C)n1nnnc1C(c1cc2cc(C)ccc2[nH]c1=O)N1CCCc2ccccc21 (centres undefined)
  107	nt	nt	nt	nt	-5	-2.4
COC(=O)c1ccc(C(=O)OC)c(=O)[nH]1
  100	i	0.94	nt	nt	nt	nt
Cc1cc([N+](=O)[O-])nn1CCCC(=O)NC(C)c1ccccc1 (centres undefined)
  103	i	0.94	7	122	-10	0.5
Cc1oncc1-c1csc(-c2ccccc2)n1
  100	i	0.98	nt	nt	-5	nt
COc1cccc(Cn2nnc(C(=O)Nc3ccc(C)cc3)c2N)c1
  106	i	0.88	nt	nt	-6	-1.3
COC(=O)c1oc2ccc(Br)cc2c1NC(=O)CCCN1C(=O)c2ccccc2C1=O
  106	i	0.9	nt	nt	-13	-1.3
CC1(C)C2CCC1(C)C(OC(=O)CC(=O)O)C2 (centres undefined)
  103	i	0.92	11	67	-7	-1.2
Cc1cccc2cc(CN(CCN3CCOCC3)C(=O)Nc3ccccc3F)c(=O)[nH]c12
  94	i	1	-26	142	4	-0.7
CON/C=C(\C=Nc1ccc(C(F)(F)F)cc1)c1ncc(C(F)(F)F)cc1Cl
  92	i	1	-33	153	9	-2.0
c1ccc(COc2nsnc2N2CCOCC2)cc1
  94	i	0.9	nt	nt	15	-3.6
COc1cc(C2=NOC(C(=O)N3CCCCCC3)C2)cc(OC)c1OC (centres undefined)
  110	i	0.94	nt	nt	-15	0.2
Cc1ccc(N/C=C2/Sc3ccccc3NC2=O)cc1
  100	i	1.2	nt	nt	-3	nt
O=C(CSc1nnc(-c2ccc(Br)cc2)n1CCc1ccccc1)NC1CCS(=O)(=O)C1 (centres undefined)
  109	i	0.94	nt	nt	-6	1.2
O=C(c1ccc(OC2CCN(C(=O)C3CC3)CC2)cc1)N(CCO)Cc1ccccc1
  103	i	0.76	nt	nt	nt	nt
COc1ccc2c(c1)-c1c(sn(-c3ccccc3)c1=S)C(C)(C)N2
  106	i	0.82	-4	77	-9	-1.9
COc1ccc(CNc2ccc(C(=O)O)cc2)cc1
  121	i	1.1	-28	121	-5	-1.5
CC(=O)C(Cc1ccccc1)NC(=O)CN1CCN(Cc2ccccc2)CC1 (centres undefined)
  100	i	0.95	nt	nt	12	nt

More entries:
Order of results: RGS16-Gao	HSV replic up	HSV replic up primary fold	Insulin prom inh	Insulin prom inh cell count	PKD1 inh	GALR2 agonist
CCC(C)Oc1nc(C)cc(C)c1S(=O)(=O)c1ccccc1C (centres undefined)
  100	i	0.96	21	80	6	-2.4
CN(C)C(=O)c1ccc(-c2n[nH]c(=O)c3ccccc23)cc1
  99	i	1.1	nt	nt	5	nt
CNC(=O)NC(=O)COC(=O)CCCSc1nc2ccccc2s1
  91	i	0.99	23	71	-1	-1.2
O=C(NCCN1CCN(C(=O)c2cccs2)CC1)c1cccs1
  102	i	1.1	33	105	-8	-2.9
COc1ccc(C2CC(c3cccs3)=NN2c2ccc(F)cc2)cc1OC (centres undefined)
  100	i	0.9	nt	nt	-1	nt
COc1ccc(/C=N/n2c(C)nc3c([nH]c4ccccc43)c2=O)cc1CN1CCCC(C)(C)C1
  105	i	0.66	nt	nt	nt	nt
Cc1nc2ccccn2c1C(=O)CSc1cccc(Cl)c1
  101	i	1	nt	nt	1	nt
COc1ccc(N2C(=O)CC(N3CCC(C(N)=O)CC3)C2=O)cc1 (centres undefined)
  93	i	1.2	0	123	-5	-1.6
COc1ccc(S(=O)(=O)NN=C2CCCC2)cc1
  105	i	1.1	7	112	-3	-3.2
O=c1c2cc3c(cc2[nH]c(=S)n1Cc1ccco1)OCO3
  72	nt	nt	18	83	-4	-2.3
CCn1c(COc2ccc(Cl)cc2)nnc1SCc1nc2ccccc2[nH]1
  94	i	1	-29	151	0	-2.1
CN1CCCN(Cc2nc(-c3ccc(Cl)cc3)no2)CC1
  100	i	1	nt	nt	-8	nt
COc1ccccc1-n1cnc2cc(NCc3ccco3)ccc21
  100	i	0.78	nt	nt	10	-2.5
Cc1ccn2c(C(=O)N/N=C\c3ccccc3[N+](=O)[O-])c(C)nc2c1
  nt	nt	nt	nt	nt	5	-1.6
Cc1nc2sc(C)c(C)c2c(=O)[nH]1
  98	i	0.82	nt	nt	3	-0.8
CN(C(=O)COC(=O)c1ccc(Cl)nc1)C1CCS(=O)(=O)C1 (centres undefined)
  104	i	0.86	-75	107	-2	nt
COc1ccc(/C(C)=N\NS(=O)(=O)c2ccccc2)cc1OC
  100	i	0.92	-8	154	-2	-0.9
COc1nccnc1NS(=O)(=O)c1ccc(NC(=S)NC(=O)c2ccc(F)c(F)c2)cc1
  103	i	0.98	39	166	-5	-0.1
O=C(CCCC(=O)N/N=C\c1ccccn1)N/N=C\c1ccccn1
  100	i	1	-27	169	-11	0.1
CCCS(=O)(=O)c1c(S(=O)(=O)CCC)c2cnccn2c1C(=O)c1ccc(F)cc1
  99	i	1.1	nt	nt	-2	-1.3
O=C1c2ccccc2C(=O)c2c([N+](=O)[O-])ccc(O)c21
  90	i	0.73	nt	nt	nt	nt
Cc1cc(C(F)(F)F)cc(NNC(=O)NC(=O)c2ccccc2Cl)n1
  103	i	1.3	nt	nt	nt	nt
Cc1nc(N)nc(OCC(F)(F)C(F)F)c1Br
  94	i	0.94	39	74	-12	-1.9
CN1CCNC(=O)C1CC(=O)N1CC=C(c2ccc(F)cc2)CC1 (centres undefined)
  101	i	0.94	nt	nt	-3	nt
CNC(=S)NNC(=O)Cc1ccccc1
  74	i	0.85	31	128	1	-1.1
CCOC(=O)c1ccc(NC(=O)CN2CCN(CCN=CC3=C(O)CC(C)(C)CC3=O)CC2)cc1
  100	i	0.81	-3	121	-15	0.3
CCOc1ccc(C(=O)c2ccccc2C(=O)O)cc1OCC
  96	i	0.93	nt	nt	-3	nt
O=C(CSc1c[nH]c2ccccc12)NCc1ccc2c(c1)OCO2
  101	i	1	nt	nt	5	0.3

Filtered by structure: the compounds so far containing a cyano group.
Order of results: RGS16-Gao	HSV replic up	HSV replic up primary fold	Insulin prom inh	Insulin prom inh cell count	PKD1 inh	GALR2 agonist
N#Cc1nc(-c2ccccc2F)oc1NCCc1ccccc1
  114	i	0.87	-3	103	-18	-0.4
Cc1ccc(NC(=O)/C(C#N)=C/c2cccs2)c(C)c1
  104	i	0.97	30	74	-1	-0.4

Bioassay records from PubChem BioAssay.
